HPGD block: inhibitors of human 15-hydroxyprostaglandin dehydrogenase (HPGD); P15428; purified HPGD, NADH fluorescence kinetic, PGE2 substrate; Potency, µM, for the others: at the highest dose activity change, negative = inhibition, hits mostly inhibitors; 150,000 tested, 4.3% active; AID 894; active = well fitted inhibition curve with a large enough effect (not every such curve was filed as active); inconclusive = small, poorly fitted or top-dose-only effect, or another doubt; inactive = no such curve, though single readings can be large or run the other way;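 also: top concentration of the series not given in the record; plate controls included wells without enzyme; inactives centre near -10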
Target sequence (P15428 whole entry, looked up): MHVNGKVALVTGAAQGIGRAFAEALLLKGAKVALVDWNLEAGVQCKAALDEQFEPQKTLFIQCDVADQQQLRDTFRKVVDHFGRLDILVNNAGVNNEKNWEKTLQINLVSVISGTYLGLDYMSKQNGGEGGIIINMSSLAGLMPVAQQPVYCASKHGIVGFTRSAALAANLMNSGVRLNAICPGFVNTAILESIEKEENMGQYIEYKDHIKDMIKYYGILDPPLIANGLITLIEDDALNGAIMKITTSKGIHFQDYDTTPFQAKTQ
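NADH formation kinetics: reaction with 30 uM PGE2 and 1 mM NAD+ (final), 20 nM enzyme, Tris-HCl pH 8 with Tween 20, after 15 min compound preincubation at room temperature. Fluorescence change, last versus first of five reads.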
* = called active by the depositor; ? = inconclusive. % is scaled to controls: 0 for no effect and ±100 for the full control effect; potency is read from the fitted curve at half-maximal effect. A portion of the library; count on the stated rates, not on these rows.

canonical_smiles	HPGD block
OC(COc1ccc2ccccc2c1)CN1CCOCC1 (stereo unspecified)	-25.7%
O=C(CSc1nnc(COc2ccccc2)o1)N1CCN(c2ccccc2)CC1	-10.3%
COCCN(CCOC)c1cc(C)c(C#N)c2nc3ccccc3n12	?
CCOc1ccc(CSC(CC(=O)O)C(=O)O)cc1 (stereo unspecified)	-14.1%
CC(C)n1nnnc1C(c1ccc(F)cc1)N1CCN(C2CCCC2)CC1 (stereo unspecified)	-7.6%
CCOc1ccc(/C(O)=C2\C(=O)C(=O)N(c3cc(C)on3)C2c2ccccc2OC)cc1 (stereo unspecified)	?
O=C(CN1CCN(c2ccccc2F)CC1)c1c[nH]c2ccccc12	-2.2%
N/C(Cc1ccc([N+](=O)[O-])cc1)=N\OC(=O)c1ccc(Br)cc1	-9.6%
Cc1ccc(C(=O)Nc2ccccc2Sc2ccccc2)cc1	-6.7%
Cc1cc(C)nc(N2CCN(c3ncnc4c3cnn4Cc3ccc(Cl)cc3Cl)CC2)n1	-5.9%
O=c1c2cc(Cl)ccc2[nH]c(=S)n1Cc1ccco1	-19.7%
COc1ccc(NC(=O)N2CC3(CCN(S(C)(=O)=O)CC3)C2)cc1	-1.7%
O=C(NCc1ccco1)c1cccc(S(=O)(=O)N2CCCCC2)c1	-17.3%
Cc1cc(OCC(=O)NCc2ccccn2)cc(C)c1Br	-12.7%
O=C(NCCCN1CCCCC1)c1ccc2c(c1)NC(=O)C(N1CCOCC1)S2 (stereo unspecified)	-4.9%
Cc1sc2ncn(CC(=O)NCC(=O)N(C)C3CCCCC3)c(=O)c2c1C	-1.7%
COCC(=O)N1CCc2nc(COc3ccccc3)c3c(c2C1)CO[C@@H](C)C3	-9.9%
O=C(c1cccc(F)c1)N1CCC2(CCCN(c3cccc(-c4ccccc4)c3)C2)CC1	-14.4%
COc1ccc(OC)c(CNC(=O)CCc2nc(-c3cccs3)no2)c1	1.3%
CCOC(=O)c1ccc(NCC(O)COc2ccccc2)cc1 (stereo unspecified)	-3.6%

Pulled by structure from above, two records:
canonical_smiles	HPGD block
COCC(=O)N1CCc2nc(COc3ccccc3)c3c(c2C1)CO[C@@H](C)C3	-9.9%
COc1ccc(NC(=O)N2CC3(CCN(S(C)(=O)=O)CC3)C2)cc1	-1.7%

(further entries)
canonical_smiles	HPGD block
O=C(NN1C(=O)c2ccc3c4c(ccc(c24)C1=O)CC3)c1ccc(Br)cc1	?
COc1ccc(C2C(C(=O)c3ccco3)=C(O)C(=O)N2CCc2ccccc2)cc1OC (stereo unspecified)	-12.1%
COc1cc(C(=O)Nc2ccc(C(C)=O)cc2)c(Br)c(OC)c1OC	-6.6%
CCc1ccc(NC(=O)Cn2c(=O)n(CCCC(=O)NCc3ccco3)c(=O)c3ccccc32)cc1	-0.7%
COc1ccc(OC)c(NC(=O)/C=C/c2ccccc2[N+](=O)[O-])c1	-6.2%
COCc1ccccc1Cn1cnc2c1c(=O)n(C)c(=O)n2C	-6.7%
CCOC(=O)c1ccc(Nc2nc(-c3cccnc3)nc3ccccc23)cc1	-28.7%
COc1ccc(C(=O)OC(C)CN2CCOCC2)cc1OC (stereo unspecified)	-8.4%
Cc1occc1-c1nnc(SCCCC(=O)c2ccc(F)cc2)n1C	-14.4%
Cc1cc(C)nc(SCc2nnc(SCC(=O)Nc3ncc(C)s3)n2Cc2ccco2)n1	-8.8%
O=[N+]([O-])c1ccc(Cl)c(-c2ccc(/C=N/c3c(-c4ccco4)nc4ccccn34)o2)c1	2.9%
CC(Oc1ccc(-c2ccccc2)c(F)c1)c1ccn(S(=O)(=O)c2cccc3ccccc23)n1 (stereo unspecified)	-11.5%
O=C(NCC1CCCO1)c1ccccc1 (stereo unspecified)	20µM*
COC(=O)c1nn(-c2ccc(-c3ccccc3)cc2)cc1O	-27.9%
CCCc1nc2sc3c(c2c(=O)n1NC(=O)c1ccco1)CC(C)(C)OC3	-8.4%
O=C(Nc1ccc2c(c1)OCO2)C1CCCCN1S(=O)(=O)c1ccc(F)cc1 (stereo unspecified)	-2.2%
CC(=O)Nc1cc(C(=O)N2CCN(C)CC2)ccc1S(=O)(=O)c1ccc(C)cc1	-24.7%
O=C(COC(=O)CCS(=O)(=O)c1ccc(Cl)cc1)NCCc1ccc(Cl)cc1Cl	-19.5%
O=C(Cc1cccs1)Nc1nnc(Cc2ccc(F)cc2)s1	-1.5%
Cc1cc(C)nc(N(C#N)CC(=O)c2ccccc2)n1	-27.8%

5 compounds out of the list above, ordered by the number in HPGD block, largest number first.
canonical_smiles	HPGD block
O=[N+]([O-])c1ccc(Cl)c(-c2ccc(/C=N/c3c(-c4ccco4)nc4ccccn34)o2)c1	2.9%
O=C(Cc1cccs1)Nc1nnc(Cc2ccc(F)cc2)s1	-1.5%
O=C(Nc1ccc2c(c1)OCO2)C1CCCCN1S(=O)(=O)c1ccc(F)cc1 (stereo unspecified)	-2.2%
CC(Oc1ccc(-c2ccccc2)c(F)c1)c1ccn(S(=O)(=O)c2cccc3ccccc23)n1 (stereo unspecified)	-11.5%
CC(=O)Nc1cc(C(=O)N2CCN(C)CC2)ccc1S(=O)(=O)c1ccc(C)cc1	-24.7%

Carrying on.
canonical_smiles	HPGD block
CC(=O)N1CCN(C(=S)NCCc2ccccc2)CC1	1.8%
CC(=O)OCC(=O)[C@@]1(O)CCC2C3CCC4=CC(=O)CC[C@]4(C)C3C(O)C[C@]21C (stereo partly specified)	-8.1%
Nc1nnc(CC(=O)N/N=C/c2cccc(OCCOc3ccccc3)c2)s1	-4.1%
O=C(c1cc2ccccc2oc1=O)N(Cc1ccccc1)Cc1ccc2c(c1)OCO2	?
O=C(CSc1c(Cl)cccc1Cl)NC1CCCc2ccccc21 (stereo unspecified)	-6.1%
COC(=O)Nc1nc(Sc2ncc(C(F)(F)F)cc2Cl)n[nH]1	-0.2%
CCCSc1nnc(Nc2ccccc2C)s1	-12.0%
O=C(NC(=S)Nc1nc2c(ccc3ccccc32)s1)c1cccs1	-12.8%
COC(=O)c1ccc(NC(=O)C2CCCN2S(=O)(=O)c2ccc(F)cc2)cc1 (stereo unspecified)	-4.7%
COc1ccc(CCN(Cc2cccs2)S(=O)(=O)c2ccc(S(=O)(=O)N3CCCCCC3)cc2)cc1OC	-9.1%

(next part)
molecule	HPGD block
COCCN(C(=O)CCC(=O)Nc1cccnc1)C(C(=O)NC1CCCCC1)c1ccccc1 (stereo unspecified)	-6.5%
CCN1CCN(CCCNC(=O)C(NC(=O)C2CCC(C)CC2)C(C)C)CC1 (stereo unspecified)	-6.6%
COc1ccc(CNC(=O)/C=C/c2cc3c(cc2Br)OCO3)cc1	-13.7%
O=C(CN1C(=O)c2ccccc2C1=O)Nc1ccccc1F	-2.5%
O=C1c2ccccc2C(=O)N1c1ccc(S(=O)(=O)N2CCN(c3ccccc3)CC2)cc1	-4.0%
Cc1cccc2cc(C(c3nnnn3CC3CCCO3)N3CCCc4ccccc43)c(=O)[nH]c12 (stereo unspecified)	-6.4%
Cc1cccc(/C=C2/SC(=O)N(Cc3ccccc3)C2=O)n1	-3.9%
O=C(N/N=C/c1cccc(F)c1)c1c(O)c2ccccc2[nH]c1=O	-16.6%
CCCn1c(CNC(=O)c2cccs2)nc2ccccc21	-14.1%
Cc1ccc(O)c(-c2cc(-c3ccccc3F)[nH]n2)c1	4.47µM*
CCOc1ccc(/C=N/OCC(=O)Nc2cc(C)on2)cc1	2.4%
CCc1c(O)cc2n(c1=O)-c1ccc(Cl)cc1C2(C)C	-7.6%
CCNC(=O)CC1SC(=Nc2ccc(C)cc2)N(CC)C1=O (stereo unspecified)	-3.2%
O=C(c1ccco1)N1CCC2(CC1)CCN(C(c1ccccc1)c1ccccc1)CC2	-1.8%
CCCN(CCC)CCNC(=O)C1CCCN(S(=O)(=O)c2ccc3c(c2)oc(=O)n3C)C1 (stereo unspecified)	-7.2%
COC(=O)C1=C(C)NC2=C(C(=O)c3ccccc32)C1c1ccc(-c2ccc(C(=O)O)cc2)o1 (stereo unspecified)	17.8µM*
O=C1CCCC(c2ccccc2)N1 (stereo unspecified)	-7.9%
CN1CCN(/C(=N\O)c2nonc2N)CC1	-7.9%
CCOC(=O)c1sc2nc(CC(=O)OC)nc(NCc3ccco3)c2c1C	-22.6%
Cc1cccc(OCCCC(=O)O)c1	-7.1%
CCS(=O)(=O)N1CCC(C(=O)NCCc2ccc(C)cc2)CC1	?
Fc1ccc(CSc2nnc(-c3cccs3)o2)cc1	15.8µM*
Cc1cccc(OCc2n[nH]c(=S)o2)c1	-4.5%
C=CCN(CC=C)c1nc2ccccc2nc1C(C#N)C(=O)OC(C)C (stereo unspecified)	-23.6%
CCCCN=C(NNc1ccc(Br)cc1)C(=O)OCC	-26.9%
O=C(c1ccc(N2CCCC2=O)cc1)N1CCN(c2ccccc2)CC1	-2.6%
COc1ccc(C(=O)COC(=O)CSCc2c(C)noc2C)cc1OC	-16.6%
CCOC(=O)c1ccc(NC(=O)CN2C(=O)C3C4C=CC(C4)C3C2=O)cc1 (stereo unspecified)	-16.1%
CCOc1ccc(S(=O)(=O)NCCCN2CCOCC2)cc1	-16.7%
CCn1c(SCC(=O)Nc2ccc(C)cc2)nc2nc3c(cc2c1=O)CCCC3	-8.7%
CCOC(=O)N1CC=C2C(C#N)=C(N)C(C#N)(C#N)[C@H](c3cccs3)C2C1 (stereo partly specified)	-11.8%
COC(=O)c1ccc2c(c1)NC(=O)C(N1CCCC1)S2 (stereo unspecified)	-14.2%
COC(=O)N1CCC[C@@]2(CCN(C(=O)NC(C)C)C2)C1	-2.6%
Cc1nn(-c2ccccc2)c(Cl)c1/C=N/Nc1nc2ccccc2n1C	-14.4%
Cc1cc(C)c(C#N)c(SCc2cn3ccccc3n2)n1	-24.9%
O=C(NCCN1CCCC1)C1(S(=O)(=O)c2ccc(Cl)cc2)CC1	-8.5%
O=C(c1ccc(F)cc1)N1CCN(Cc2ccccc2Br)CC1	-3.4%
Cn1c(SCC(=O)N/N=C/C=C/c2ccccc2[N+](=O)[O-])nc2ccccc21	-5.4%
CCC(=O)Nc1nonc1-c1nc2ccccc2n1N(C(=O)CC)C(=O)CC	?
CCC(C)(C)NC(=O)C(c1ccc(OC)cc1)N(Cc1cccs1)C(=O)CCC(=O)Nc1cc(C)on1 (stereo unspecified)	-8.7%
CCCCn1c(=O)[nH]c(=O)c2c1nc(COC(=O)c1c(C)noc1C)n2CCC	-9.8%
Cc1cc(C)n(C(=O)c2ccccc2[N+](=O)[O-])n1	-11.7%
CCOc1[nH]n(-c2ccc(Cl)cc2)c(=O)c1C=Nc1ccc(OC)cc1	-7.0%
COC(=O)Cn1ncc(N2C3CC(CC(C)(C)C3)C2C)c(Cl)c1=O (stereo unspecified)	-17.7%
COCCNc1c2c(nc3c(-c4ccccc4)c(C)nn13)CCCC2	-11.8%
CCOC(=O)C1CCN(c2c(-c3ccccc3)c3cc(Cl)ccc3[nH]c2=O)CC1	-10.7%
CCc1nc(NCCN2CCOCC2)c(C#N)c2c1CCCC2	-4.4%
Brc1ccc2c(c1)OCCOCCOCCOCCOCCO2	-12.3%
CCCC(=O)NCCc1c2n(c3ccc(OC)cc13)CCCc1ccccc1-2	?
CC(=O)N(Cc1c(C)nn(-c2ccccc2)c1Cl)c1ccc(Cl)cc1	-1.9%
CC(C)N=C(Nc1ccc(Cl)cc1)c1cccnc1	-12.1%
CC1=C(C(=O)OC2CCCCCCC2)C(c2cccc(O)c2)NC(=O)N1 (stereo unspecified)	-5.2%
O=C(Cn1[nH]c(=O)c2ccccc2c1=O)NCc1cccnc1	-15.6%
COC(=O)[C@H](CCSC)NC(=O)N1CCC(C)CC1	-5.8%
CC/C(C)=N\N=C\c1c(O)n(CC)c2cc(C3=NNC(=O)CC3)ccc12	31.6µM*
COCCn1c(-c2ccc(OC)cc2)cnc1SCC(=O)Nc1ccc(OC)cc1OC	-13.7%
CCN(CC)S(=O)(=O)c1ccc(N=N/C(C(C)=O)=C(/C)O)cc1	-10.6%
N#Cc1c(NC(=O)c2ccccc2)sc2c1CCCCC2	?
CCOc1ccc(NC(=O)CSc2nc3cccnc3n2CC)cc1	-2.4%
Cn1nnnc1SCC(=O)NCC(=O)c1ccccc1	-6.5%

Other compounds follow:
molecule	HPGD block
C=CCOc1cccc(C2c3c(oc4ccccc4c3=O)C(=O)N2c2ccccn2)c1 (stereo unspecified)	-5.3%
COc1ccc(Cl)cc1-n1c(C)cc(C=O)c1C	14.1µM*
O=C(/C=C/c1ccccc1Cl)N1CCCN(C(=O)/C=C/c2ccccc2Cl)CC1	-15.4%
CCCC(O)(c1ccc(OC)cc1)C(CN(C)C)c1ccccc1 (stereo unspecified)	-8.8%
O=C(Nc1ccccc1F)C(=Cc1sc(N2CCOCC2)nc1-c1ccccc1)C(=O)Nc1ccccc1F	-12.7%
COC(=O)c1cc2nc(-c3ccc(OC)c(OC)c3)cc(C(F)(F)F)n2n1	-15.9%
COc1ccc(N2CCN(C(=O)c3ccc4c(=O)n(CC5CCCO5)c(=O)[nH]c4c3)CC2)cc1 (stereo unspecified)	-0.1%
O=C(COc1ccccc1)N1CCN(S(=O)(=O)c2ccc(Cl)cc2)CC1	-9.3%
COc1ccc2[nH]c(=O)c(CN(CCO)S(=O)(=O)c3c(C)ccc4nsnc34)cc2c1	?
N#Cc1nc(COc2ccccc2F)oc1NCc1ccc(F)cc1	20µM*
COc1ccccc1/C=C/C(=O)c1ccc(Cl)cc1	?
COc1ccccc1CNC(=O)COC(=O)c1ccc(S(=O)(=O)N2CCCC2)cc1	-9.7%
Cc1ccccc1C(=O)Nc1ccccc1-c1nnn(CC(=O)Nc2ccc3c(c2)OCCO3)n1	-18.0%
CC(=O)c1ccc(N2CCN(C(=O)CCCc3nc4ccccc4s3)CC2)cc1	?
Cc1nc(-c2cccc(NS(=O)(=O)c3cccc4ccccc34)c2)cs1	-12.6%

Screening data (PubChem)
